Bioassay records from PubChem BioAssay.
CtBP-E1A inh = CtBP/E1A binding inhibition; AlphaScreen GST-E1A/His-CtBP binding, 1536-well; active compounds read low; control for the full effect not named in the record; activity change, % (no concentration beside the values); 340,000 compounds, 0.49% hits; in the data active means activity change below about -65%; inconclusive means about -30% to -65%; inactive means above about -30%; further: on the % scale 0 is the no-effect control and ±100 the full control effect
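GST-E1A and His-tagged CtBP (125 nM each as 5X stock) were preincubated with pin-transferred compound for 2 h at 37 °C in the dark, then glutathione donor and nickel acceptor beads were added for 1 h before AlphaScreen reading.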
TRPV1 PAM = human TRPV1 potentiation; TRPV1-expressing cells, Fluo-8 calcium influx, capsaicin EC20 potentiation; host cell line not named in the record; control for the full effect not named in the record; 320,000 compounds, 0.02% hits; Q8NER1; AID 540277; potentiation, % at 8.33 µM; active means potentiation above 80%; inconclusive means 30% to 80%; inactive means below 30%; further: 0% is about no effect
Target sequence (Q8NER1 whole entry, looked up): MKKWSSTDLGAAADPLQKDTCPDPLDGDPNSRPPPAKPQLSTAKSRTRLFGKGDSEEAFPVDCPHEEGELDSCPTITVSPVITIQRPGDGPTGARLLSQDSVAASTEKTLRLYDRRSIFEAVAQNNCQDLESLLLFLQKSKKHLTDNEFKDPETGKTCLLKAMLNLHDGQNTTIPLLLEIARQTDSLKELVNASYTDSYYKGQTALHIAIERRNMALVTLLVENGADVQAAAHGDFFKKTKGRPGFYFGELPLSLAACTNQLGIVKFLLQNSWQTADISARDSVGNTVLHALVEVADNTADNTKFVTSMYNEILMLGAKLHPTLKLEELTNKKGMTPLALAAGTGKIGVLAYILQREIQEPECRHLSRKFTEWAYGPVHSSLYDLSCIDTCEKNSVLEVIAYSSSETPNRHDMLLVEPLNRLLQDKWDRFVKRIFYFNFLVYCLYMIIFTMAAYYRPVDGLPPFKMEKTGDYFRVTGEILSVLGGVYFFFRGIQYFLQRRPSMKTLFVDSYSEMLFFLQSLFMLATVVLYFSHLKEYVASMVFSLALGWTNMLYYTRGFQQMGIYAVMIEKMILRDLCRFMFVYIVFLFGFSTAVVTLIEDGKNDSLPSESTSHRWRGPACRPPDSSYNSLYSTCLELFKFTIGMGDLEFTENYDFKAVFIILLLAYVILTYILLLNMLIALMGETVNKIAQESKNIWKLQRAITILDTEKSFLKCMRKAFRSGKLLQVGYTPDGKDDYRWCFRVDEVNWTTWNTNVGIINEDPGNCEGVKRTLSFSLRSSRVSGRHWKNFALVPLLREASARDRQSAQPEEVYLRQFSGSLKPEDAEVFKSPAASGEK
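Fluo-8 calcium influx in TRPV1-expressing cells, kinetic read (ex 480/em 520 nm). Compound added and read 3 min for agonist activity, followed by capsaicin at EC20 final and 2 min further read for enhancement.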
PINK1 modulator = modulators of PINK1 expression; PINK1 immunofluorescence, high-content cytometry, 24 h; Potency, µM (titrated, usually from 76.6 µM), inactives show at the highest dose activation (PINK1 increase), hits mostly activators; 410,000 compounds, 0.2% hits; AID 624263; active = well fitted activation curve with a large enough effect; inconclusive = small, poorly fitted or top-dose-only effect; inactive = flat fitted curve, though single readings scatter; cell line not stated here;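 further: potency means the concentration at half of the fitted maximal effect; % of control where 0% means no effect; nearly all actives have a fitted effect of over 65% in size; a mitochondrial uncoupler was the plate control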
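Decision-based qHTS: stable cells, 24 h exposure to five compound concentrations, CCCP as control. Fixed cells stained for PINK1 plus nuclear, mitochondrial and cell markers, cytometer read.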
Sfp inh = blocks B. subtilis Sfp PPTase activity; Potency, µM, inactives show max response, negative = inhibition, actives largely listed as inhibitors; Biochemical Sfp PPTase activity, qHTS; 310,000 compounds, 3.5% hits; Q9F4F7; active means well fitted inhibition curve with a large enough effect; inconclusive means small, poorly fitted or top-dose-only effect, or another doubt; inactive means no such curve, though single readings can be large or run the other way;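 further: the enzyme is Sfp with the accession as filed and its product quenches rhodamine fluorescence; potency means the concentration at half of the fitted maximal effect; 0% = enzyme reaction without inhibitor and -100% = no enzyme wells; top concentration of the series not given in the record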
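With Hepes-Na pH 7.6 buffer containing 10 mM MgCl2, Sfp (15 nM) modified BHQ-2-YbbR (12.5 uM) using rhodamine-CoA (5 uM). Two reads 30 minutes apart at 525/598 nm yielded each well's rate.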
D2 ag = human D2 receptor agonism in beta-arrestin assay. activation, % (concentration not given with the values). 360,000 compounds, 0.084% hits. P14416. AID 624465. DiscoveRx PathHunter D2 beta-arrestin, luminescence, 90 min; 100% = 57 uM dopamine signal; in the data active = activation above about 40%; inconclusive = about 15% to 40%; inactive = below about 15%; further: the text of the record calls up to 30% inactive
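Agonist mode: compounds alone added to overnight-plated D2 PathHunter cells for 90 min at 37 C, with 57 uM final dopamine (EC100) defining full response. Beta-arrestin recruitment detected by chemiluminescent reagent, read after 1 h at ambient temperature.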
D2 PAM = potentiates the human D2 dopamine receptor allosterically; potentiation, % (concentration not given with the values); 360,000 compounds, 0.23% hits; P14416; DiscoveRx D2 beta-arrestin cells, luminescence, 90 min; 100% = 57 uM dopamine signal; active = potentiation of 50% or more; inconclusive = 30% to 50%; inactive = 30% or less;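 further: tested on top of an EC20 dose of dopamine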
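D2 cells co-treated with compound plus 50 nM dopamine (EC20) for 90 min at 37 deg C to detect potentiation. Beta-arrestin recruitment was read as enzyme-fragment luminescence after 1 h at ambient temperature. Full response was set by 57 uM dopamine.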
Six1-Eya2 blk = Six1/Eya2 interaction inhibition | activity change, % (no concentration beside the values) | AlphaScreen GST-Six1/His-Eya2 binding, biochemical; active compounds read low; control for the full effect not named in the record | Q15475+O00167 | 360,000 compounds, 0.56% hits; in the data active = activity change below about -65%; inconclusive = about -30% to -65%; inactive = above about -30%; further: on the % scale 0 is the no-effect control and ±100 the full control effect
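Compounds are tested against tagged Six1 and Eya2 proteins bridged by glutathione donor and nickel acceptor beads; after a one-hour incubation at 37 °C without light, AlphaScreen emission is recorded.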
Active calls of the source: *; ? = inconclusive; / = no result given; & = joins results of further samples; [ ] = another dose, or the depositor's remark. Hits appear at their usual frequency. Share with any hit: about 3.7%.

1	COc1ccc(CNC(=O)CC(NC(N)=O)c2ccccc2Cl)cc1OC (centres undefined)
2	COc1cc2nc(CCc3ccccc3)oc(=O)c2cc1OC
3	Cc1ccccc1C1=NC(c2ccc(F)cc2F)ON1 (centres undefined)
4	CN(Cc1cccc(-n2cccn2)c1)C(=O)CCc1nnc(C2CCCCC2)o1
5	C=CCNC(=O)COc1ccc(Br)cc1Cl
6	O=c1[nH]c(CCl)nc2cc(-c3ccc(F)cc3)sc12
7	O=C(NCc1cccnc1)c1ccc(CS(=O)(=O)c2ccc(Br)cc2)o1
8	COc1ccc(OC)c(NC(=O)CCNS(=O)(=O)c2ccc3c(c2)CC(C)N3C(C)=O)c1 (centres undefined)
9	COc1ccc(-n2cnc3ccccc32)cc1
10	O=C(NCc1ccccc1Br)c1ccncc1
entry no.,1,2,3,4,5,6,7,8,9,10
CtBP-E1A inh,-23.3,2.0,10.9,8.6,-0.1,11.1,4.2,-2.1,0.3,-0.3
D2 ag,-5.9,-0.9,-4.6,-2.3,1.1,-5.6,-0.7,-1.2,-0.1,-0.3
PINK1 modulator,2.5%,-0.4%,0.4%,0.5%,-1.7%,-1.5%,1.3%,0.2%,-5.8%[38.3 µM],-0.8%
D2 PAM,-11.5,1.0,5.6,-2.7,-0.5,-1.7,-2.6,-14.9,-9.5,-5.5
Sfp inh,6.4%,-2.8%,-4.1%,15.1%,19.4%,-2.7%,-1.1%,/,2.9%,11.7%
Six1-Eya2 blk,0.0,7.1,12.7,-0.3,10.2,6.6,-0.3,-7.3,2.0,6.2
TRPV1 PAM,?,17.0,-5.0,-12.0,-28.7,-17.8,?,/,-4.7,-8.4

Random excerpt: five records from the list.
1	COc1ccc(CNC(=O)CC(NC(N)=O)c2ccccc2Cl)cc1OC (centres undefined)
5	C=CCNC(=O)COc1ccc(Br)cc1Cl
9	COc1ccc(-n2cnc3ccccc32)cc1
10	O=C(NCc1ccccc1Br)c1ccncc1
3	Cc1ccccc1C1=NC(c2ccc(F)cc2F)ON1 (centres undefined)
entry no.,1,5,9,10,3
CtBP-E1A inh,-23.3,-0.1,0.3,-0.3,10.9
D2 ag,-5.9,1.1,-0.1,-0.3,-4.6
PINK1 modulator,2.5%,-1.7%,-5.8%[38.3 µM],-0.8%,0.4%
D2 PAM,-11.5,-0.5,-9.5,-5.5,5.6
Sfp inh,6.4%,19.4%,2.9%,11.7%,-4.1%
Six1-Eya2 blk,0.0,10.2,2.0,6.2,12.7
TRPV1 PAM,?,-28.7,-4.7,-8.4,-5.0

(list continues)
11	CCN1CCN(c2ccc(N=Cc3ccccc3O)cc2)CC1
12	CCN(C(=O)/C=C/c1ccc(OC)cc1)C1CCCCC1
13	CC(C)CCNC(=O)[C@@H](Cc1ccccc1)NC(=O)CC[C@H]1O[C@@H](n2ccc(=O)[nH]c2=O)[C@H](O)[C@@H]1O
14	Cc1sc2nc3n(c(=O)c2c1C)CCCS3
15	COc1ccc(S(=O)(=O)N(C)CC(=O)N2CCC(C(N)=O)CC2)cc1Cl
16	CC1(C(=O)NS(=O)(=O)c2ccc(C#N)cc2)CCN1C(=O)C1(c2ccccc2)CCCC1 (centres undefined)
17	Cc1ccc(S(=O)(=O)N2CCC(C(=O)N[C@H](C(=O)NC3CCS(=O)(=O)C3)C(C)C)CC2)cc1 (some centres undefined)
18	Cc1ccc(C(=O)Nc2ccc(N3CCN(C)CC3)cc2)cc1
19	CC(C)(CO)NCC(=O)Nc1cc(C(F)(F)F)cc(NC(=O)CNC(C)(C)CO)c1Cl
20	C/C(=N\NC(=O)c1ccccc1C)c1ccc(NC(=O)c2cccs2)cc1
entry no.,11,12,13,14,15,16,17,18,19,20
CtBP-E1A inh,5.3,-10.3,-17.5,-10.8,12.2,6.6,-4.7,1.4,1.1,6.5
D2 ag,-3.7,1.4,-5.7,-4.3,3.7,2.6,-1.1,-4.5,-2.7,-1.7
PINK1 modulator,3.8%,0.2%,0.2%,1.2%,1.6%[38.3 µM],-0.8%,3.9%,-1.1%,3.7%,9.1%
D2 PAM,-6.3,-5.2,-4.1,-42.9,3.2,2.4,-1.7,2.2,-29.0,-2.8
Sfp inh,17.9%,3.4%,/,17.5%,18.6%,/,-3.0%,4.3%,-3.6%,5.6%
Six1-Eya2 blk,-7.1,-15.5,4.2,-14.8,-0.7,0.2,7.9,-3.7,-2.0,-8.0
TRPV1 PAM,4.4,-1.1,/,-7.8,-15.3,/,?,1.4,-3.8,-24.4

21	Cc1ccc(CC(=O)OC(C)C(=O)NC2CCCCC2C)cc1C (centres undefined)
22	CCN(CC)S(=O)(=O)c1ccc(Cl)c(C(=O)OCC(=O)c2c(N)n(C)c(=O)n(C)c2=O)c1
23	Cn1ncc(Cl)c(Oc2ccccc2)c1=O
24	O=C(CCN1CCc2ccccc2C1)Nc1ccc2c(c1)OCO2
25	CCCCC[C@H](C)N1C[C@@H](COCc2ccccc2)Oc2cc(N3CC[C@H](N(C)C)C3)ccc2S1(=O)=O
26	COc1ccc(OC)c(NC(=O)CS(=O)(=O)Cc2ccccc2)c1
27	COCCN1C2=C(C(=O)CC(C)(C)C2)C(c2ccc(O)c(OC)c2)C2=C1CC(C)(C)CC2=O
28	O=C(CN1C(=O)NC(CCc2ccccc2)C1=O)Nc1cccc(Br)c1 (centres undefined)
29	CS(=O)(=O)N1CCN(C(=O)C2c3ccccc3Oc3ccccc32)CC1
30	CCOC(=O)C1(C)CCN1C(=O)c1csnn1 (centres undefined)
entry no.,21,22,23,24,25,26,27,28,29,30
CtBP-E1A inh,/,?,10.9,-8.0,-8.0,0.4,/,4.3,-6.6,3.8
D2 ag,-2.8,1.7,-0.9,-1.6,/,-4.0,-1.6,7.5,-2.4,-6.7
PINK1 modulator,0.3%,5.1%,-3.4%[38.3 µM],-2.3%,-1.1%,-0.4%,0.2%,-1.1%,-3.7%[38.3 µM],0.8%
D2 PAM,-10.5,3.2,-11.3,-39.2,/,-34.5,0.5,-4.9,-8.0,-7.3
Sfp inh,/,17.1%,5.3%,9.1%,/,5.1%,15.6%,/,23.6%,/
Six1-Eya2 blk,5.1,?,2.9,1.0,-23.7,-2.7,-0.6,-0.4,-2.9,0.1
TRPV1 PAM,-16.4,11.1,-1.1,-25.2,/,3.5,3.9,/,-6.3,/

31	CCOc1ccccc1NC(=O)c1cccc2ccccc12
32	Cc1ccc2nc(-c3ccc4c(c3)NC(=O)CO4)cn2c1
33	CCOc1cccc(CNc2ccc(O)cc2)c1OCc1ccccc1Cl
34	CCOC(=O)c1ccc(NC(=S)N2CCN(S(C)(=O)=O)CC2)cc1
35	Cc1ccc(NC(=O)CN2CCN(S(=O)(=O)c3ccc(F)cc3)CC2)cc1C
36	COc1ccc(CCN(C)C(=O)CCc2nnc(-c3ccccc3)o2)cc1OC
37	CC1=C(C(=O)OC(C)C)C(c2ccccn2)n2ncnc2N1 (centres undefined)
38	CCOC(=O)CNC(=O)CSc1ccc2nnc(-c3cccnc3)n2n1
39	CC(C)C[C@H]1CN([C@@H](CC(C)C)CN2CCC[C@@H]2CN2C(=S)NC[C@@H]2Cc2ccc(O)cc2)C(=S)N1CC1CCCCC1
40	CC1CN(C2=CC(=O)CCC2)CC(C)O1 (centres undefined)
entry no.,31,32,33,34,35,36,37,38,39,40
CtBP-E1A inh,0.7,0.9,?,-9.0,10.3,-3.5,1.2,0.0,-3.5,-2.6
D2 ag,2.4,2.4,13.7,-1.0,-4.5,0.1,-0.9,-3.8,4.2,-18.8
PINK1 modulator,4.8%,5.3%,2.4%&9.9%,-3.6%,4.8%,0.3%,2.5%,1.0%,?,-1.0%
D2 PAM,-0.4,-1.7,?,-20.5,-22.0,-0.9,-5.0,-4.0,0.0,-7.0
Sfp inh,-3.9%,-7.5%,-13.2%,7.3%,/,-9.1%,12.1%,21.0%,/,-0.5%
Six1-Eya2 blk,-0.2,-13.2,-24.1,0.5,-1.0,7.2,5.1,-1.5,-12.2,8.2
TRPV1 PAM,-7.8,8.1,5.5,-2.9,-3.4,6.0,-3.5,-28.3,/,2.2

41	Cc1ccc(S(=O)(=O)Cn2nnnc2C(c2ccccc2)N2CCN(c3ncccn3)CC2)cc1 (centres undefined)
42	CCCC(=O)NC(Nc1ccccc1OC)C(Cl)(Cl)Cl (centres undefined)
43	Cc1ccc(NC(=O)CN2C(=O)S/C(=C/c3ccc(-c4cccc(C(=O)O)c4)o3)C2=O)cc1
44	Cc1ccc(N2C(=O)CSC2c2ccc3c(c2)OCO3)cc1 (centres undefined)
45	O=C(CNC(=O)c1ccco1)OCC(=O)c1cccc2ccccc12
46	C=CCOC(=O)C1=C[C@@H](c2coc3ccccc3c2=O)C[C@@H](OCCCCO)O1
47	CCOC(=O)c1cc(-c2ccccc2)sc1NC(=S)Nc1cccc(C)n1
48	Nc1ccc(Cl)c[n+]1Cc1cccc2cccnc12
49	Cc1ccc(C(=O)NC2CCC(C)CC2)o1 (centres undefined)
50	CCOC(=O)c1cnc2c(CC)cccc2c1NCCCN1CCOCC1
51	Cc1oc2cc(OC(=O)c3ccco3)ccc2c(=O)c1-c1nc2ccccc2n1C
52	C[C@H]1CN([C@@H](C)CO)C(=O)CCCn2nncc2CO[C@H]1CN(C)S(=O)(=O)c1ccc2c(c1)OCCCO2
entry no.,41,42,43,44,45,46,47,48,49,50,51,52
CtBP-E1A inh,-3.2,3.4,2.6,16.0,3.3,3.7,0.6,/,-13.1,/,-0.2,6.3
D2 ag,-3.7,0.2,3.5,-0.7,-3.2,3.8,-3.5,-2.8,2.8,-1.3,-0.2,-6.3
PINK1 modulator,3.0%,1.4%[38.3 µM],-0.9%,0.8%,2.0%,2.5%,?,1.4%,3.7%,2.8%,0.5%,2.2%
D2 PAM,-7.9,1.4,-2.8,-7.8,-22.0,7.4,2.9,-12.9,3.3,-15.0,-1.9,5.0
Sfp inh,5.6%,6.6%,-17.2%,14.9%,-6.1%,/,-20.3%,13.1%,/,7.1%,-1.4%,/
Six1-Eya2 blk,-5.6,0.6,6.4,-1.9,-5.0,0.1,8.4,2.1,3.4,3.7,0.2,-6.4
TRPV1 PAM,3.1,3.6,-13.0,4.3,-5.3,/,15.4,-5.0,-3.5,-14.3,-1.1,/
